Source: PubChem
D2 potentiator: potentiates the human D2 dopamine receptor allosterically | DiscoveRx D2 beta-arrestin cells, luminescence, 90 min; 100% = 57 uM dopamine signal | potentiation, % (no concentration beside the values) | 360,000 compounds, 0.23% hits; active = potentiation of 50% or more; inconclusive = 30% to 50%; inactive = 30% or less;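 note: compound concentration not given in the record; tested on top of an EC20 dose of dopamine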
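PathHunter D2 cells, attached overnight at 37 deg C, received compound in DMSO plus dopamine at EC20 (50 nM final) for 90 min at 37 deg C. Beta-arrestin recruitment was read as luminescence after 1 h with detection reagent at ambient temperature.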
TRPV1 PAM: potentiators of human vanilloid receptor 1 (TRPV1) | potentiation, % at 8.33 µM | 320,000 compounds, 0.02% hits | TRPV1-expressing cells, Fluo-8 calcium influx, capsaicin EC20 potentiation; host cell line not named in the record; control for the full effect not named in the record | Q8NER1; active means potentiation above 80%; inconclusive means 30% to 80%; inactive means below 30%; note: 0% is about no effect
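Cells expressing TRPV1 were dye-loaded with Fluo-8 and read kinetically: 10 s baseline, 3 min after compound (agonist portion), then 2 min after EC20 capsaicin (allosteric enhancer portion). Calcium-bound dye fluorescence at 480/520 nm.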
Six1-Eya2 blk: inhibitors of human Six1/Eya2 interaction; Q15475+O00167; AlphaScreen GST-Six1/His-Eya2 binding, biochemical; active compounds read low; control for the full effect not named in the record; activity change, % (test concentration not listed); 360,000 compounds, 0.56% hits; AID 651725; in the data active = activity change below about -65%; inconclusive = about -30% to -65%; inactive = above about -30%; note: % is set by controls: 0 for no effect and ±100 for the full control effect
Target sequence (O00167 whole entry, looked up): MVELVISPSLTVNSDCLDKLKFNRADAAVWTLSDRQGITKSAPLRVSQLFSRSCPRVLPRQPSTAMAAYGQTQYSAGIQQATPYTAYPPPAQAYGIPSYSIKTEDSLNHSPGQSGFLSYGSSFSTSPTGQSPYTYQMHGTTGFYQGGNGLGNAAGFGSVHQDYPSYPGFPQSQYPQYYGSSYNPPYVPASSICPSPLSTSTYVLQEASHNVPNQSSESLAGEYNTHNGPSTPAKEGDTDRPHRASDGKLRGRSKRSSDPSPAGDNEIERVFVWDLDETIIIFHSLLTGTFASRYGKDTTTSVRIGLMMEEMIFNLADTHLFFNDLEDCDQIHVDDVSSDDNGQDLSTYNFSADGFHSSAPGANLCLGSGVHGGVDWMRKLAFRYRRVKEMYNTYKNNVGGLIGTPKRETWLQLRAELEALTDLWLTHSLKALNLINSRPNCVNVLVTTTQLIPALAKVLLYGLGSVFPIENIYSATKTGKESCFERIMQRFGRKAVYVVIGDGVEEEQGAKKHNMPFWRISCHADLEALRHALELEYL
Target sequence (Q15475 whole entry, looked up): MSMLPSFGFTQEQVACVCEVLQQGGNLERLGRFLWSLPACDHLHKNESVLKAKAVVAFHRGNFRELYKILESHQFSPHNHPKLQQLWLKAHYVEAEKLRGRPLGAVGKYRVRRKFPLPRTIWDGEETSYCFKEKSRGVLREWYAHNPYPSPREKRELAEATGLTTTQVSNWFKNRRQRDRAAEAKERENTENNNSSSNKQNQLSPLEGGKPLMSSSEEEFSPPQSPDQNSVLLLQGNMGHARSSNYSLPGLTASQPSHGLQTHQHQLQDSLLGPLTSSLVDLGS
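AlphaScreen with GST-Six1 and His-Eya2 (5X mix: 250 nM and 500 nM), glutathione donor and nickel acceptor beads; buffer 50 mM Tris pH 8.0, 300 mM NaCl, 1 mM TCEP; 1 h at 37 C in the dark.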
PINK1 modulator: modulators of PINK1 expression. PINK1 immunofluorescence, high-content cytometry, 24 h. Potency, µM (top dose mostly 76.6 µM), for the others: at the top dose activation (PINK1 increase), actives largely listed as activators. 410,000 compounds, 0.2% hits. AID 624263; active = well fitted activation curve with a large enough effect; inconclusive = small, poorly fitted or top-dose-only effect; inactive = flat fitted curve, though single readings scatter; cell line not stated here;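 note: potency is the fitted concentration of half-maximal effect; % of control where 0% means no effect; nearly all actives have a fitted effect of over 65% in size; a mitochondrial uncoupler was the plate control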
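Fluorescence from anti-PINK1 antibody, together with nuclear and cell stains, was scanned on a laser-scanning cytometer. Before staining, stable-line cells were incubated 24 hours with compounds at 5 concentrations; primary antibody 12 h at 10 degrees C.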
D2 agonist: agonists of human D2 dopamine receptor (beta-arrestin) | DiscoveRx PathHunter D2 beta-arrestin, luminescence, 90 min; 100% = 57 uM dopamine signal | activation, % (test concentration not listed) | 360,000 compounds, 0.084% hits; in the data active = activation above about 40%; inconclusive = about 15% to 40%; inactive = below about 15%; note: compound concentration not given in the record; the text of the record calls up to 30% inactive
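DiscoveRx PathHunter D2 beta-arrestin cells (2,100/well) attached overnight, then compound-stimulated 90 min at 37 C in HBSS/10 mM HEPES/0.1% Tween-20 buffer; beta-galactosidase complementation read by luminescence after 1 h at ambient temperature. Dopamine 57 uM final (EC100) as control.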
CtBP-E1A blk: blocks the CtBP interaction with E1A. AlphaScreen GST-E1A/His-CtBP binding, 1536-well; active compounds read low; control for the full effect not named in the record. activity change, % (test concentration not listed). 340,000 compounds, 0.49% hits. AID 651724; in the data active means activity change below about -65%; inconclusive means about -30% to -65%; inactive means above about -30%; note: % is set by controls: 0 for no effect and ±100 for the full control effect
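In 5 uL wells, 23 nL compound meets equimolar GST-E1A and His-CtBP (5X stock 125 nM each) for 2 h, 37 °C. Beads (5X, 50 ug/mL) then 1 h, 37 °C, dark.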
Sfp PPTase inh: blocks B. subtilis Sfp PPTase activity; Q9F4F7; Biochemical Sfp PPTase activity, qHTS; Potency, µM, without a hit: max response, negative = inhibition, actives largely listed as inhibitors; 310,000 compounds, 3.5% hits; AID 1490; active = well fitted inhibition curve with a large enough effect; inconclusive = small, poorly fitted or top-dose-only effect, or another doubt; inactive = no such curve, though single readings can be large or run the other way;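 note: the enzyme is Sfp with the accession as filed and its product quenches rhodamine fluorescence; potency is the fitted concentration of half-maximal effect; 0% = enzyme reaction without inhibitor and -100% = no enzyme wells; top concentration of the series not given in the record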
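Buffer: 50 mM Hepes-Na pH 7.6, 10 mM MgCl2, 0.01% Nonidet P-40, 0.01% BSA. Enzyme 15 nM, pre-exposed to compound 15 min; substrates then added and fluorescence change tracked over 30 min.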
An asterisk follows results filed as active; & = joins results of further samples; [ ] = remark or other dose.

What do the screens show for `CN(Cc1nc(-c2cccnc2)no1)S(=O)(=O)c1ccc2ccccc2c1`?
D2 potentiator: -1; TRPV1 PAM: -6; Six1-Eya2 blk: -1; PINK1 modulator: 5.1%[38.3 µM]; D2 agonist: 1.6; CtBP-E1A blk: -2; Sfp PPTase inh: 14%

Results for COc1cccc(C(C(=O)NCc2ccco2)N(Cc2ccco2)C(=O)Cn2nnc3ccccc32)c1 (stereo not given) ?
D2 potentiator: 23; TRPV1 PAM: 6; Six1-Eya2 blk: -8; PINK1 modulator: 15%; D2 agonist: -1.2; CtBP-E1A blk: -9; Sfp PPTase inh: 19%

How did O=C(NCc1nc(-c2ccccc2)no1)Nc1ccc(F)cc1 do in these assays?
D2 potentiator: -3; TRPV1 PAM: -4; Six1-Eya2 blk: 3; PINK1 modulator: -0.3%; D2 agonist: 0.8; CtBP-E1A blk: 5; Sfp PPTase inh: 23%

Results for COc1ccccc1/C=C/C(=O)OCC(=O)c1cc(C)n(C)c1C ?
D2 potentiator: 0; TRPV1 PAM: 14; Six1-Eya2 blk: -14; PINK1 modulator: 0.1%; D2 agonist: 8.3; CtBP-E1A blk: -20

Results for O=C1C(=O)N(Cc2cccnc2)C(c2cccc([N+](=O)[O-])c2)/C1=C(/O)c1ccc2c(c1)OCO2 (stereo not given) ?
D2 potentiator: -5; TRPV1 PAM: inconclusive; Six1-Eya2 blk: 0; PINK1 modulator: -0.8%; D2 agonist: 0.2; CtBP-E1A blk: 9; Sfp PPTase inh: 12%

Results for O=C(CSc1ccc(-c2ccco2)nn1)c1ccccc1 ?
D2 potentiator: 30; TRPV1 PAM: 21; Six1-Eya2 blk: -6; PINK1 modulator: -1.2%; D2 agonist: 5.4; CtBP-E1A blk: 2; Sfp PPTase inh: 3.2µM*

How did O=C(Nc1ccc(Br)cc1)c1ccc2c(c1)OCO2 do in these assays?
D2 potentiator: -6; TRPV1 PAM: 0; Six1-Eya2 blk: 9; PINK1 modulator: 8.7%; D2 agonist: -5.0; CtBP-E1A blk: -7; Sfp PPTase inh: 10%

How did O=C(O)c1ccccc1Nc1ccc([N+](=O)[O-])cc1C(=O)O do in these assays?
D2 potentiator: -23; TRPV1 PAM: -4; Six1-Eya2 blk: 5; PINK1 modulator: 0.2%; D2 agonist: -5.6; CtBP-E1A blk: -2; Sfp PPTase inh: 16%

Results for O=C(Nc1nc(-c2cccs2)cs1)c1ccc(Cl)s1 ?
D2 potentiator: -7; TRPV1 PAM: -14; Six1-Eya2 blk: 1; PINK1 modulator: inconclusive; D2 agonist: -3.6; CtBP-E1A blk: 11; Sfp PPTase inh: 5%

What do the screens show for `CC1=C(C(=O)OCc2ccccc2)C(c2ccccc2)NC(=O)N1CCCC(=O)O` (stereo not given)?
D2 potentiator: 1; TRPV1 PAM: -3; Six1-Eya2 blk: 1; PINK1 modulator: 0.5%; D2 agonist: -1.4; CtBP-E1A blk: 4; Sfp PPTase inh: 11%

What do the screens show for `O=C(Nc1nnc(Cc2ccc(Cl)cc2)s1)c1ccncc1`?
D2 potentiator: -1; TRPV1 PAM: -2; Six1-Eya2 blk: 4; PINK1 modulator: -0.4%; D2 agonist: 0.4; Sfp PPTase inh: 22%

Results for O=C(Nc1ccc(-c2nc3ccccc3[nH]2)cc1)c1c(F)c(F)c(F)c(F)c1F ?
D2 potentiator: -1; TRPV1 PAM: 6; Six1-Eya2 blk: 20; PINK1 modulator: -0.8%; D2 agonist: 1.0; CtBP-E1A blk: 16; Sfp PPTase inh: 16%

Results for CCCNC(=O)Cc1c(OC)ccc2cc(Br)ccc12 ?
D2 potentiator: -6; TRPV1 PAM: 8; Six1-Eya2 blk: -7; PINK1 modulator: 1.2%; D2 agonist: 0.8; CtBP-E1A blk: -5; Sfp PPTase inh: -19%

Results for CCS(=O)(=O)c1ccc2oc(Nc3cc(Cl)ccc3OC)nc2c1 ?
D2 potentiator: -4; TRPV1 PAM: 17; Six1-Eya2 blk: -3; PINK1 modulator: 2.4%; D2 agonist: 1.9; CtBP-E1A blk: -6; Sfp PPTase inh: 4%

Results for Cc1ccc2c(=O)oc(N(C)C)nc2c1 ?
D2 potentiator: -4; TRPV1 PAM: 12; Six1-Eya2 blk: 28; PINK1 modulator: -1.4%; D2 agonist: 2.0; CtBP-E1A blk: 36; Sfp PPTase inh: -8%

As a short view, part of the list above:
Results for COc1cccc(C(C(=O)NCc2ccco2)N(Cc2ccco2)C(=O)Cn2nnc3ccccc32)c1 (stereo not given) ?
D2 potentiator: 23; TRPV1 PAM: 6; Six1-Eya2 blk: -8; PINK1 modulator: 15%; D2 agonist: -1.2; CtBP-E1A blk: -9; Sfp PPTase inh: 19%

How did O=C(NCc1nc(-c2ccccc2)no1)Nc1ccc(F)cc1 do in these assays?
D2 potentiator: -3; TRPV1 PAM: -4; Six1-Eya2 blk: 3; PINK1 modulator: -0.3%; D2 agonist: 0.8; CtBP-E1A blk: 5; Sfp PPTase inh: 23%

The results go on:
What do the screens show for `COC(=O)c1cc2n(n1)CCN(Cc1ccccc1F)C2=O`?
D2 potentiator: 0; TRPV1 PAM: 19; Six1-Eya2 blk: -3; PINK1 modulator: -1.1%; D2 agonist: 0.9; CtBP-E1A blk: 10; Sfp PPTase inh: 9%

Results for COc1cccc(NC(=O)CCN2CCN(C)CC2)c1 ?
D2 potentiator: -6; TRPV1 PAM: 5; Six1-Eya2 blk: 6; PINK1 modulator: 1.7%[38.3 µM]; D2 agonist: -2.9; CtBP-E1A blk: 0; Sfp PPTase inh: 5%

How did Cc1ccc(NC(=O)CCC(=O)c2cc(C)sc2C)nc1 do in these assays?
D2 potentiator: -2; TRPV1 PAM: -6; Six1-Eya2 blk: -5; PINK1 modulator: 7.0%; D2 agonist: -2.3; CtBP-E1A blk: -1

How did CC(C)=C1SC(N2CCN(c3ccc(C)c(Cl)c3)CC2)=NC1=O do in these assays?
D2 potentiator: -16; TRPV1 PAM: 6; Six1-Eya2 blk: 2; PINK1 modulator: 3.0%; D2 agonist: 0.3; CtBP-E1A blk: 1; Sfp PPTase inh: 8%

What do the screens show for `COc1ccc(OC)c(C(=O)/C=C/c2cccnc2)c1`?
D2 potentiator: -1; TRPV1 PAM: 6; Six1-Eya2 blk: 4; PINK1 modulator: -1.9%; D2 agonist: 0.1; CtBP-E1A blk: 0; Sfp PPTase inh: -28%

How did CC(=O)C1=C(C)NC(SCC(=O)c2ccc(F)cc2)=C(C#N)C1CC(C)C (stereo not given) do in these assays?
D2 potentiator: -19; TRPV1 PAM: 4; Six1-Eya2 blk: 14; PINK1 modulator: 1.5%; D2 agonist: -0.2; CtBP-E1A blk: 3; Sfp PPTase inh: 14µM*

Results for O=C(COC(=O)CCSc1ccccc1)NCc1ccccc1 ?
D2 potentiator: -8; TRPV1 PAM: -6; Six1-Eya2 blk: 10; PINK1 modulator: 1.1%; D2 agonist: -3.5; CtBP-E1A blk: 4; Sfp PPTase inh: 15%

Results for COc1ccc(Br)cc1/C=N/NC(=O)c1ccc(OC)c(OC)c1 ?
D2 potentiator: -5; TRPV1 PAM: -4; Six1-Eya2 blk: -20; PINK1 modulator: 6.3%; D2 agonist: -6.2; CtBP-E1A blk: -30; Sfp PPTase inh: 16%

What do the screens show for `CCNc1sc(C(=O)c2cccs2)c(N)c1-c1nc2ccccc2s1`?
D2 potentiator: -12; TRPV1 PAM: 7; Six1-Eya2 blk: -14; PINK1 modulator: 8.4%; D2 agonist: -9.6; CtBP-E1A blk: -10; Sfp PPTase inh: 18µM*

What do the screens show for `CCCCC(=O)NNC(=O)N1c2ccccc2Sc2ccccc21`?
D2 potentiator: 6; TRPV1 PAM: 5; Six1-Eya2 blk: -7; PINK1 modulator: 3.2%; D2 agonist: inconclusive; CtBP-E1A blk: -7; Sfp PPTase inh: 14%

What do the screens show for `O=c1c2ccccc2[nH]c(=S)n1Cc1cccnc1`?
D2 potentiator: -8; TRPV1 PAM: -1; Six1-Eya2 blk: -1; PINK1 modulator: 1.7%[38.3 µM]; D2 agonist: 1.4; CtBP-E1A blk: 7; Sfp PPTase inh: 1%

How did Cn1cc2ccc(N)cc2n1 do in these assays?
D2 potentiator: 18; TRPV1 PAM: -2; Six1-Eya2 blk: 3; PINK1 modulator: 1.6%; D2 agonist: -1.5; CtBP-E1A blk: 1; Sfp PPTase inh: -5%

What do the screens show for `CCN(CC)C(=O)C1=C(C)N(Cc2ccc(F)cc2)C(=O)C(CC(=O)NCc2ccco2)C1` (stereo not given)?
Six1-Eya2 blk: -3; PINK1 modulator: -1.1%; D2 agonist: -1.1; CtBP-E1A blk: 0

Results for COc1cccc(NC(=O)CCN2C(=O)c3ccccc3Sc3ncccc32)c1 ?
D2 potentiator: -9; TRPV1 PAM: 2; Six1-Eya2 blk: -1; PINK1 modulator: -0.2%&0.5%; D2 agonist: 5.9; CtBP-E1A blk: 2; Sfp PPTase inh: 16%

What do the screens show for `O=C(NC(O)C(=O)c1ccccc1)c1cccs1` (stereo not given)?
D2 potentiator: -12; TRPV1 PAM: 20; Six1-Eya2 blk: -5; PINK1 modulator: 17%; D2 agonist: -4.7; CtBP-E1A blk: 4; Sfp PPTase inh: 10%

How did CCOC(=O)C1CCN(C(=O)c2ccccc2NC(=O)c2ccc(Br)cc2)CC1 do in these assays?
D2 potentiator: -13; TRPV1 PAM: -4; Six1-Eya2 blk: 19; PINK1 modulator: -1.9%; D2 agonist: -4.9; CtBP-E1A blk: -1; Sfp PPTase inh: 16%

Results for Cc1ccc(Sc2c(C)[nH]n(C(C)(C)C)c2=O)cc1 ?
D2 potentiator: -10; TRPV1 PAM: -5; Six1-Eya2 blk: 1; PINK1 modulator: 4.7%[38.3 µM]; D2 agonist: -0.3; CtBP-E1A blk: -1; Sfp PPTase inh: 15%

What do the screens show for `Cc1ccc(NC2c3ncccc3C(=O)N2Cc2ccco2)c(C)c1` (stereo not given)?
D2 potentiator: -3; TRPV1 PAM: -4; Six1-Eya2 blk: -2; PINK1 modulator: -0.3%; D2 agonist: -4.7; CtBP-E1A blk: -1; Sfp PPTase inh: 3%

Results for O=C(O)C1=CC[C@@H](c2ccc(Cl)cc2)N(S(=O)(=O)c2ccc(Cl)cc2)[C@H]1c1ccc(F)cc1 ?
D2 potentiator: -6; TRPV1 PAM: 17; Six1-Eya2 blk: 5; PINK1 modulator: 2.7%; D2 agonist: -2.2; CtBP-E1A blk: -1

Results for O=C(Nc1ccc2c(c1)OCCO2)C1c2ccccc2OCC(=O)N1Cc1ccccc1 (stereo not given) ?
Six1-Eya2 blk: -16; PINK1 modulator: 2.1%; CtBP-E1A blk: -8

Rows are unselected (roughly 3.7% active in at least one column).
